HSV augment: increases HSV replication in cells; AID 1956; hit rate 0.005% among 220,000; HSV replication augmentation in cells, fold increase; maximum fold increase;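 active = peak rise of 1.5-fold or more in the series; inconclusive = self-fluorescent or not available for retest; tested in PC3 cells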;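 note: first round at 10 µM; read as green reporter fluorescence; hits show the peak of a series up to 25 µM; 1 = signal of infected wells without compound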
PKD1 kinase inh: PKD1 (human) kinase inhibition | Q15139 | PKD1 kinase fluorescence polarization assay | inhibition, %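 (about 10 µM by stock and volumes)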 | hit rate 0.056% among 200,000 | AID 797;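 active = inhibition of 50% or more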;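 note: controls were vehicle for no effect and a reference inhibitor for full effect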
GALR2 ag: activates the human galanin receptor 2; O43603; GALR2-expressing cells, agonist activation read-out; activation, %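 (tested at 5 µM)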; hit rate 0.48% among 140,000;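 active = above mean plus 3 SD of all compounds, about 5% in these data, not always enough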;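 note: 0% = vehicle buffer wells and 100% = reference agonist at full effect; tested in CHO reporter cells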
Target sequence (O43603 whole entry, looked up): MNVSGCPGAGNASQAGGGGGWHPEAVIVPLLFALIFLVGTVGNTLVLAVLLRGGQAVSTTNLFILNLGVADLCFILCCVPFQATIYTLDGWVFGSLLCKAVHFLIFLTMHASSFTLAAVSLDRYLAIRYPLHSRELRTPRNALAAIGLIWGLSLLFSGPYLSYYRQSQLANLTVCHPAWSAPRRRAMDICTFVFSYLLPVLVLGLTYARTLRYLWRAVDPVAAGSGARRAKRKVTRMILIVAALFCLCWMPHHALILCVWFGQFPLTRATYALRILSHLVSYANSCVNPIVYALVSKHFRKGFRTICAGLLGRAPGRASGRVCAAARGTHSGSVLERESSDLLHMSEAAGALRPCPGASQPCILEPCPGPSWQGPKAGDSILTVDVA
INS promoter inh: TRM-6 insulin promoter activity inhibition; TRM-6 cells (human fetal islet line), insulin promoter-eGFP reporter, imaging; reporter expression induced with tamoxifen; inhibition, % at 2 µM; hit rate 0.9% among 130,000; AID 1273;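 active = inhibition above the mean plus 3 SD, with well images judged a real hit on visual review, cut at about 60% in these data, passing the limit was not always enough; inconclusive = inhibition over the cutoff but images rejected on review; inactive = inhibition not above the cutoff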
RGS16-Gao HTS: modulates binding between human RGS16 and Galphao. hit rate 0.38% among 220,000. bead-based flow cytometry RGS16-Galphao binding, fluorescence; actives lie on both sides. O15492+P09471. binding response (% of control), % at 10 µM;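 active = below 25% or above 175%, edge rows of some plates excepted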;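 note: Galphao activated by GDP with aluminum fluoride before binding; 100% = wells without compound and 0% = beads without RGS; some results beyond the cut were filed as inactive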
Target sequence (O15492 whole entry, looked up): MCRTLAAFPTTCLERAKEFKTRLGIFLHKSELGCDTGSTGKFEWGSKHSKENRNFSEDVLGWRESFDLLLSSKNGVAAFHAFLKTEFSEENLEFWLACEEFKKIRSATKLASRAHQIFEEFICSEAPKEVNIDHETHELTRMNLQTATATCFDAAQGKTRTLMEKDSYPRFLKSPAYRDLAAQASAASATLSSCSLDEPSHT
Target sequence (P09471 whole entry, looked up): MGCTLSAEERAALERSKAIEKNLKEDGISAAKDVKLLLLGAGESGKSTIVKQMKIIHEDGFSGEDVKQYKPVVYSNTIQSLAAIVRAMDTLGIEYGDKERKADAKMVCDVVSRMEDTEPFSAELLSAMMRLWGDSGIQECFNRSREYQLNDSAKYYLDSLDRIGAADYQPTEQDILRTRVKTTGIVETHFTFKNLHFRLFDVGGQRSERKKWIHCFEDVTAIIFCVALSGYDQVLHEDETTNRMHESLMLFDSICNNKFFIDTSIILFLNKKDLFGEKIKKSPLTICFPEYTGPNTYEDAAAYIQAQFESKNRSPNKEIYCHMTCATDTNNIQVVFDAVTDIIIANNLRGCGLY
INS promoter inh cell count: further read-out of INS promoter inh, marked with its call; normalized cell count, %; measured here: cell count, toxicity; reference of the scale not given here;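 cells exposed to compound for 48 h; stained nuclei by imaging scaled within each plate; lower means fewer cells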
HSV augment primary fold: second read-out of HSV augment, no call of its own (marks repeat the call); fold increase; compound at 10 µM; measured here: primary screen fold increase 10 uM; tested in PC3 cells;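 GFP signal in the first replicate; 1 = infected wells without compound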
Starred values were filed as active, the others as inactive; i = inactive; ? = inconclusive; · = no result given.

entry | canonical_smiles | HSV augment | HSV augment primary fold | PKD1 kinase inh | GALR2 ag
1 | COc1cc(C2NC(=O)NC(c3ccccc3)=C2C(C)=O)ccc1OCC(=O)O (stereo unspecified) | i | 0.88 | -2 | -2.0
2 | OCCSc1nc2ccccc2n1CCOc1ccccc1 | i | 0.89 | -3 | -0.9
3 | O=C(c1ccc(F)cc1F)N1CCN(c2ncccn2)CC1 | i | 1 | -5 | -0.8
4 | O=c1nc(-c2ccccc2)n(-c2ccc(Cl)cc2)[nH]1 | i | 1 | -6 | -0.5
5 | Cn1cnc([N+](=O)[O-])c1SCC(=O)NN | i | 0.71 | · | ·
6 | CCOc1ccc(-n2c(=S)sc3c(=O)[nH]c(SCC(=O)C(C)(C)C)nc32)cc1 | i | 1.1 | 1 | ·
7 | O=C(c1ccco1)N1CCN(C(=O)C2c3ccccc3Oc3ccccc32)CC1 | i | 0.79 | -7 | -3.4
8 | CCN1C(=O)NC(c2cccnc2)C(C(=O)OC)=C1C (stereo unspecified) | i | 0.71 | -4 | -2.1
9 | O=[N+]([O-])c1cccc(NC(=S)N2CCOCC2)c1 | i | 1.1 | 3 | ·
10 | Cc1cc(NC(=O)CSc2nc(-c3ccc(Cl)cc3)cs2)no1 | i | 0.89 | 8 | -1.2
11 | O=C(O)C1C2C=CC(C3CC23)C1C(=O)N1CCc2ccccc21 (stereo unspecified) | i | 1.3 | 2 | -1.3
12 | O=C(CN1CCN(c2ccc(F)cc2)CC1)Nc1cc(C(F)(F)F)ccc1Cl | i | 1.1 | -1 | 0.4
13 | CCn1cc(C(=O)OCC(=O)NCc2ccc3c(c2)OCO3)c(=O)c2ccc(C)nc21 | i | 1 | 2 | -3.4
14 | CCCCCCn1c(SCC(=O)OC)nc2c1c(=O)[nH]c(=O)n2C | i | 0.93 | -6 | 0.4
15 | COCc1nnc(NC(=O)CCCOc2ccccc2OC)s1 | i | 0.82 | -10 | -0.6

entry | INS promoter inh | INS promoter inh cell count | RGS16-Gao HTS
1 | 0 | 69 | 106
2 | -13 | 147 | 94
3 | -39 | 288 | 99
4 | · | · | 102
5 | · | · | 100
6 | -14 | 84 | 100
7 | -12 | 101 | 102
8 | · | · | 102
9 | · | · | 94
10 | -167 | 88 | 108
11 | 44 | 140 | 89
12 | -82 | 165 | 95
13 | · | · | 100
14 | · | · | 66
15 | 43 | 96 | 109

Looked up by compound from above:
entry | canonical_smiles | HSV augment | HSV augment primary fold | PKD1 kinase inh | GALR2 ag
9 | O=[N+]([O-])c1cccc(NC(=S)N2CCOCC2)c1 | i | 1.1 | 3 | ·
2 | OCCSc1nc2ccccc2n1CCOc1ccccc1 | i | 0.89 | -3 | -0.9
13 | CCn1cc(C(=O)OCC(=O)NCc2ccc3c(c2)OCO3)c(=O)c2ccc(C)nc21 | i | 1 | 2 | -3.4
1 | COc1cc(C2NC(=O)NC(c3ccccc3)=C2C(C)=O)ccc1OCC(=O)O (stereo unspecified) | i | 0.88 | -2 | -2.0
15 | COCc1nnc(NC(=O)CCCOc2ccccc2OC)s1 | i | 0.82 | -10 | -0.6
4 | O=c1nc(-c2ccccc2)n(-c2ccc(Cl)cc2)[nH]1 | i | 1 | -6 | -0.5

entry | INS promoter inh | INS promoter inh cell count | RGS16-Gao HTS
9 | · | · | 94
2 | -13 | 147 | 94
13 | · | · | 100
1 | 0 | 69 | 106
15 | 43 | 96 | 109
4 | · | · | 102

(continued)
entry | canonical_smiles | HSV augment | HSV augment primary fold | PKD1 kinase inh | GALR2 ag
16 | Nc1sc(-c2ccccc2)cc1-c1n[nH]c(=S)n1C1CCCCC1 | i | 0.68 | · | ·
17 | COc1ccc(C(=O)SC2=NCCS2)cc1OC | i | 0.9 | -7 | -1.5
18 | CC1CC(=O)C2=C(C1)Nc1ccccc1N(C(=O)COc1ccccc1)C2c1ccco1 (stereo unspecified) | i | 0.89 | -12 | -1.1
19 | Cc1ccc(NC2=C/C(=N\S(=O)(=O)c3cccs3)c3ccccc3C2=O)c(C)c1 | ? | · | -2 | 1.5
20 | Cc1sc2nc(Cc3ccccc3)[nH]c(=O)c2c1-c1ccccc1 | i | 0.91 | -8 | -0.4
21 | COc1ccc(C2CC(c3ccccc3)=NN2C(=O)CSc2ncccn2)cc1 (stereo unspecified) | i | 0.96 | -11 | 0.1
22 | COc1ccc(/C(C)=N/Nc2ccc(C(=O)O)cc2)cc1OC | i | 0.95 | -3 | -0.4
23 | Cc1ccc(S(=O)(=O)N2CCN(C(=S)NCCc3ccccc3)CC2)cc1 | i | 0.91 | 0 | ·
24 | Cc1cc(Nc2ccc3c(c2)OCCO3)n2ncnc2n1 | i | 0.79 | -4 | -2.5
25 | O=C(Nc1nc(-c2ccccc2)cs1)C1CCCO1 (stereo unspecified) | i | 0.81 | -6 | -1.4
26 | Cn1c(SCC(=O)NCc2cccs2)nnc1-c1ccco1 | i | 1.1 | 0 | -2.0
27 | CCOc1ccccc1NC(=O)Nc1cc(C(=O)O)ccc1C | i | 0.99 | -4 | ·
28 | O=C(NCc1nnc(SCc2ccc(C(F)(F)F)cc2)n1-c1ccccc1)C12CC3CC(CC(C3)C1)C2 | i | 0.88 | -7 | 0.2
29 | CCCN(Cc1ccccc1)C(=S)Nc1ccc(F)cc1 | i | 0.99 | 3 | ·
30 | COC(=O)[C@H](Cc1ccccc1)NC(=O)NCc1ccccc1 | i | 1 | · | ·

entry | INS promoter inh | INS promoter inh cell count | RGS16-Gao HTS
16 | · | · | 98
17 | 50 | 104 | 102
18 | 45 | 115 | 30
19 | 22 | 120 | 104
20 | 7 | 65 | 105
21 | · | · | 97
22 | -39 | 95 | 108
23 | -47 | 150 | 98
24 | · | · | 104
25 | -62 | 68 | 98
26 | -15 | 132 | 108
27 | · | · | 109
28 | -38 | 142 | 98
29 | · | · | 100
30 | · | · | 104

Going on with the list:
entry | canonical_smiles | HSV augment | HSV augment primary fold | PKD1 kinase inh | GALR2 ag
31 | COc1nc(OC)nc(N2CCCCCC2)n1 | i | 1 | 5 | -1.0
32 | CN1C(=O)C(CC(=O)Nc2ccc(F)cc2)N(CCCc2ccccc2)C1=S (stereo unspecified) | i | 0.83 | -3 | -0.9
33 | O=C(NC1CCCCC1)NC1(C(=O)NCCCN2CCOCC2)CCCCC1 | i | 1.1 | -1 | -1.7
34 | COc1cc2oc(=O)c(Br)c(C)c2c(OC)c1OC | i | 0.99 | 2 | -2.5
35 | COc1ccccc1N1CC(O)=C(c2nc3ccccc3s2)C1=N | i | 0.67 | -1 | -1.4
36 | COc1ccc(C(=O)N[C@H](C(=O)NCc2ccco2)C(C)C)cc1 | i | 0.95 | 3 | ·
37 | CC(C)C(NS(=O)(=O)c1cccs1)C(=O)NCc1ccccc1Cl (stereo unspecified) | i | 0.96 | 1 | ·
38 | N#Cc1c(N)n(CCCN2CCOCC2)c2nc3ccccc3nc12 | i | 0.93 | 0 | 3.9
39 | Cc1cc(C)nc(SCc2ccc3nonc3c2)n1 | i | 0.93 | 4 | -0.7
40 | Cc1ccc(NC(=O)CCC(=O)NNC(=O)COc2ccccc2)cc1C | i | 0.91 | 4 | -0.7
41 | Cc1cc(NC2CCCCC2)n2c(n1)nc1ccccc12 | i | 0.98 | -5 | ·
42 | Cc1ccc(C)c(N2CCN(C(=O)c3ccc4nc(-c5ccco5)c(-c5ccco5)nc4c3)CC2)c1 | i | 0.82 | -11 | 1.9
43 | O=[N+]([O-])c1cccc(/C=C/C=N/Nc2nc(N3CCCCC3)nc(N3CCCCC3)n2)c1 | i | 1.1 | -8 | ·
44 | COC(=O)c1ccc(CSc2ccc3nnc(-c4ccc(F)cc4)n3n2)o1 | i | 0.97 | 7 | ·
45 | Cc1cccc(N(CC(=O)NC2CCCCC2)C(=O)Cn2nnc(-c3ccc(C)o3)n2)c1 | i | 1 | -3 | ·

entry | INS promoter inh | INS promoter inh cell count | RGS16-Gao HTS
31 | -54 | 65 | 105
32 | -43 | 112 | 93
33 | · | · | 121
34 | · | · | 102
35 | -19 | 192 | 82
36 | · | · | 103
37 | · | · | 107
38 | · | · | 94
39 | -14 | 103 | 103
40 | -21 | 110 | 109
41 | -45 | 54 | 97
42 | -18 | 64 | 91
43 | · | · | 101
44 | -18 | 85 | 101
45 | · | · | 101

The list goes on.
entry | canonical_smiles | HSV augment | HSV augment primary fold | PKD1 kinase inh | GALR2 ag
46 | Cc1ccc(NC(=O)C(NC2CCCc3ccccc32)c2ccccc2)c([N+](=O)[O-])c1 (stereo unspecified) | i | 1.1 | -14 | -0.9
47 | C/C(=N\NC(=O)c1ccccc1O)c1ccc(Br)s1 | i | 0.95 | -3 | -0.1
48 | CCc1cccc(CC)c1NC(=O)COC(=O)c1ccc(F)c(S(=O)(=O)N(CC)CC)c1 | i | 1 | -5 | -0.9
49 | O=S(=O)(c1ccc2nc(-c3ccco3)c(-c3ccco3)nc2c1)N1CCOCC1 | i | 0.91 | -1 | 2.1
50 | O=C(CNC(=O)C(c1ccccc1)c1ccccc1)N/N=C/c1ccc(O)cc1O | i | 0.84 | · | ·
51 | O=c1[nH]c2cc3c(cc2cc1CN(Cc1nnnn1CC1CCCO1)C1CCCC1)OCO3 (stereo unspecified) | · | · | -2 | -1.2
52 | CCCC(=O)C1=C(O)C(C(=O)OC)C(C)(C)CC1=N (stereo unspecified) | i | 0.88 | 2 | -0.5
53 | Cc1cc(N/C=C\c2nnnn2-c2ccccc2)no1 | i | 0.95 | -10 | -1.8
54 | COc1ccc(C(=O)NC(=S)NCCO)cc1Br | i | 0.95 | -1 | -2.6
55 | C=CCOC(=O)CCC(=O)Nc1cc(OC)nc(OC)n1 | i | 1.2 | -1 | 0.1
56 | CCCOc1ccc(N2C(=O)CC(NNC(=O)c3ccc(COc4ccccc4)o3)C2=O)cc1 (stereo unspecified) | i | 1 | -11 | 0.0
57 | CCC(C)NC(=O)CSC1=Nc2ccccc2C2=NC(CC(=O)NCc3ccccc3)C(=O)N12 (stereo unspecified) | i | 0.82 | -2 | -1.7
58 | COc1ccc(-c2[nH]nc3c2C(c2ccc(OC(=O)N4CCOCC4)cc2)C(C#N)=C(N)O3)cc1 (stereo unspecified) | · | · | 16 | -1.8
59 | CCn1c(Cc2ccccc2)nnc1SCC(=O)Nc1nnc(-c2ccccc2)s1 | i | 1 | 0 | -1.5
60 | CC1(C)CC(=O)C(=CN2CCOCC2)C(=O)C1 | i | 0.83 | 3 | ·
61 | Cc1[nH]n2c(=O)c3c(nc2c1-c1ccc(F)cc1)CCCC3 | i | 1.1 | 0 | ·
62 | O=C(O)CSc1nnc(-c2ccncc2)n1Cc1ccccc1 | i | 1 | 1 | -2.6
63 | COc1ccccc1-c1cc2nc(C)c(CCC(=O)NCc3ccc(F)cc3)c(C)n2n1 | i | 0.76 | · | ·

entry | INS promoter inh | INS promoter inh cell count | RGS16-Gao HTS
46 | -61 | 76 | 86
47 | 16 | 112 | 101
48 | -26 | 163 | 96
49 | · | · | 82
50 | · | · | 95
51 | · | · | 101
52 | 38 | 108 | 89
53 | 4 | 188 | 102
54 | · | · | 84
55 | -16 | 137 | 104
56 | 26 | 122 | 103
57 | -26 | 120 | 100
58 | · | · | 38
59 | -214 | 88 | 104
60 | · | · | 99
61 | · | · | 113
62 | -30 | 122 | 103
63 | · | · | 99

Part of the list above, as labelled records:
[51] O=c1[nH]c2cc3c(cc2cc1CN(Cc1nnnn1CC1CCCO1)C1CCCC1)OCO3 (stereo unspecified)
  HSV augment: ·	HSV augment primary fold: ·	PKD1 kinase inh: -2	GALR2 ag: -1.2	INS promoter inh: ·	INS promoter inh cell count: ·	RGS16-Gao HTS: 101
[52] CCCC(=O)C1=C(O)C(C(=O)OC)C(C)(C)CC1=N (stereo unspecified)
  HSV augment: i	HSV augment primary fold: 0.88	PKD1 kinase inh: 2	GALR2 ag: -0.5	INS promoter inh: 38	INS promoter inh cell count: 108	RGS16-Gao HTS: 89

Rows were taken by chance; overall some 1.2% were active at least once.
